Source: PubChem BioAssay
AmpC nodet inh: blocks E. coli AmpC beta-lactamase in absence of detergent. P00811. AmpC nitrocefin hydrolysis, absorbance 480 nm, no detergent; potencies from a single point are estimates. Potency, µM (top dose mostly 28.7 µM), for inactives: at the top dose activity change, negative = inhibition. 1.8% of 71,000 active; active = falling curve, for most hits resting on a single point; inconclusive = weak or doubtful change; inactive = flat or rising curve; also: % of control where 0% means no effect; about half of the hits show no inhibition at the top dose; a quarter of the inactives give rising signals
Target sequence (P00811 whole entry, looked up): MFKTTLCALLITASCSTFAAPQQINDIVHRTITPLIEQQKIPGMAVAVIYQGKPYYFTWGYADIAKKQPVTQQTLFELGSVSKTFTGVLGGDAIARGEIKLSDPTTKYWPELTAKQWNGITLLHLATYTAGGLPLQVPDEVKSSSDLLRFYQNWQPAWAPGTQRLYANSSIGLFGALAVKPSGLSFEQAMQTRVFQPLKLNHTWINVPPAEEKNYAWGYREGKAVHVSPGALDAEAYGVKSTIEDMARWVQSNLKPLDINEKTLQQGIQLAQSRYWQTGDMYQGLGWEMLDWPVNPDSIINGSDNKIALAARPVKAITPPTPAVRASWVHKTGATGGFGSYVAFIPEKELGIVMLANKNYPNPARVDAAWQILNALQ
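Enzyme, pH 7.0 phosphate. Compound titrations were pre-incubated with AmpC for 15 min at room temperature before nitrocefin (stock 800 uM) addition; product formation was recorded at 480 nm every 20 s for 4 min.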
An asterisk follows results filed as active; ? = inconclusive; & = joins results of further samples; [ ] = dose if it differs, or a comment. Potency is read from the fitted curve at half-maximal effect.

molecule,AmpC nodet inh
Cc1nc(C)c(C(=O)Nc2ccc(C)c(F)c2)o1,-4%
CN1CCN(CN2C(=O)C3C4C=CC(C3C2=O)C2C3C(=O)N(CN5CCN(C)CC5)C(=O)C3C42)CC1 (stereo not drawn),0%[5.75 µM]
Nn1c(SCc2cn3ccsc3n2)nnc1-c1ccncc1,-5%
c1coc(-c2nnc(SCc3nc4ccccc4[nH]3)o2)c1,-3%
Cc1cccn2c(=O)c3cc(C(=O)N4CCC5(CC4)OCCO5)n(C)c3nc12,65%
O=C(CSc1nc(-c2cccs2)cc(C(F)(F)F)n1)NCCCn1ccnc1,23%
CCOC(=O)Cn1c(C)nc2ccccc21,-6%
Cc1ccc(C(=O)CC2(O)C(=O)N(Cc3ccccc3Cl)c3ccccc32)o1 (stereo not drawn),11%
CCOC(=O)c1sc(=NC(=O)c2ccc(S(=O)(=O)N3CC(C)OC(C)C3)cc2)n(C)c1C (stereo not drawn),98%
Cc1ccc2cc(C#N)c(N3CCCN(C(=O)C4CCCO4)CC3)nc2c1C (stereo not drawn),150%
Cc1nc2nc(C)c(CCC(=O)N3CCC4(CC3)OCCO4)c(C)n2n1,0%
CNC(=O)CN(Cc1ccccc1)S(=O)(=O)c1ccccc1,16%
O=c1c(-c2cccc(F)c2)nc2cncnc2n1Cc1ccc(F)cc1,3%
CCOC(=O)N1CCC(NC(=O)c2cc3ccccn3n2)CC1,7%
O=C(CSc1nc2c(c(=O)n1-c1ccc(F)cc1)SCC2)NCC1CCCO1 (stereo not drawn),-6%

As entered above:
Under AmpC nodet inh, `Nn1c(SCc2cn3ccsc3n2)nnc1-c1ccncc1` is entered as -5%
Under AmpC nodet inh, `CNC(=O)CN(Cc1ccccc1)S(=O)(=O)c1ccccc1` is entered as 16%

The results go on:
molecule,AmpC nodet inh
CS(=O)(=O)N1CCC2(CC1)CN(Cc1nccs1)C2,43%
O=C(NCCc1cn2ccccc2n1)c1ccc(Br)o1,-9%
c1ccc2c(N3CCOCC3)nc(-c3ccoc3)nc2c1,78%
COC(=O)[C@@]1(Cc2ccc(OC)cc2)[C@@H]2[C@@H](CC(=O)[C@H]2CC(=O)C(=O)N(C)C)CN1C(=O)c1ccccc1,156%
O=C(NCC1CCCO1)c1c(O)c2cccc3c2n(c1=O)CC3 (stereo not drawn),151%
CCn1c(Sc2nc(C)nc3scc(-c4cccs4)c23)n[nH]c1=O,47%
COc1ccccc1N(CC(=O)NC1CCCCC1)S(C)(=O)=O,28%
CCOCCCNC(=O)C(NC(=O)c1ccccn1)c1ccc(C)cc1 (stereo not drawn),24%
Cc1cc(NC(=O)CSc2nnc(-c3ccc(S(=O)(=O)N4CCCC4)cc3)n2C)no1,14%
Cc1cc(N2CCCCC2)nc(SCc2ccc(C#N)cc2)n1,76%
NC(=O)N/N=C1\CC[C@H](O)C[C@@H]1CC(=O)O,-5%[5.75 µM]
NC(=O)COC(=O)CCCc1c[nH]c2ccccc12,-7%
CCc1ccc(NC2=NCC(=O)N2Cc2ccc3c(c2)OCO3)cc1,44%
COc1ccc(NC(=O)Cn2nnc(-c3ccccc3N)n2)cc1OC,12%
Cc1[nH]nc2c1C(c1ccc(F)cc1)C1=C(CC(C)(C)CC1=O)N2 (stereo not drawn),-12%
CCCNC(=O)NC(C(=O)OC)C12CC3CC(CC(C3)C1)C2 (stereo not drawn),8%
COc1cc(NC(=O)NCc2ccncc2)cc(OC)c1OC,2%
Fc1cnc(N2CCOCC2)nc1N1CCc2ccccc21,87%
CN(Cc1ccccc1)Cc1ccccc1OC(=O)N(C)C,-12%
CCC(=O)Nc1sc(C(=O)N2CCCCC2)c(C)c1C#N,7%
OC(CN1c2ccccc2Sc2ccccc21)Cn1nnc2ccccc21 (stereo not drawn),-2%
COC(=O)c1cc(OC)c(OC)cc1NC(=O)c1oc2ccccc2c1C,43%
COc1ccc(C2C(C(=O)Nc3cccc(C)n3)c3ccccc3C(=O)N2C)cc1OC (stereo not drawn),58%
Cc1ccc(S(=O)(=O)NCc2ccc(C(=O)NCCCN3CCN(C)CC3)cc2)cc1,9%
CSc1ccc(CN(C)CC(=O)NC(=O)NC(C)(C)C)cc1,23%
Nc1nncn1C(=O)CCCN1C(=O)c2ccccc2C1=O,-4%
O=C(O)C1=CCCNC1,20%&-6%
CNC[C@H](O)[C@H](O)[C@H](O)[C@H](O)CO,-4%[12.8 µM]
O=S(=O)(Nc1ccn(-c2ccccc2)n1)c1ccc(Br)cc1,5µM*
CCn1c(C(O)c2ccccc2)nc2ccccc21 (stereo not drawn),-12%
CCc1cccc(NS(=O)(=O)c2c(C)n[nH]c2C)c1,6%
O=C(NC1CCCCC1)C1CC(=O)N(c2ccc(Cl)cc2)C1 (stereo not drawn),-2%
COCCCNC(=O)C1CC(=O)N(c2ccc(C)cc2)C1 (stereo not drawn),-16%
O=C(COC(=O)CCC(=O)c1ccc(Cl)cc1)NCC1CCCO1 (stereo not drawn),21%
Cc1c(C(=O)N2CCCc3ccccc32)oc2ccc(S(=O)(=O)N3CCOCC3)cc12,110%
Cc1ccc(-c2cc(C(=O)NCc3cccs3)no2)cc1,-5%
Cc1ccc(-c2nc(CSCC(=O)N3CCN(C(=O)c4ccco4)CC3)c(C)o2)cc1,124%
CCCOc1ccc(CC(CC(=O)O)(C(=O)O)C(=O)O)cc1,-3%
O=C(NCc1ccncc1)c1cccc(F)c1,1%
O=C(O)c1ccc(Cl)c2c1C1C=CCC1C(c1ccccn1)N2 (stereo not drawn),-2%
Cn1c(SCC(N)=O)nnc1-c1ccccc1,-14%
Cc1ccc(C)c(S(=O)(=O)Nc2ccccc2C(=O)Nc2cc(C)on2)c1,6.3µM*
COc1cccc(OCc2nnc(SCC(=O)OC3CCCCC3)n2C)c1,90%
Cc1ccccc1NC(=O)CSc1nnnn1C,-1%
COc1ccccc1-c1noc(-c2ccccc2C(=O)Nc2ccccc2)n1,24%
C=C(C)c1cccc(C(C)(C)NC(=O)NCCCN2CCCC2=O)c1,20%
Clc1ccc(CSc2ncccn2)cc1,-6%
O=C(CCN1C(=O)C2CC=C(Cl)CC2C1=O)NCc1ccco1 (stereo not drawn),16%
Cc1nc(Sc2nnnn2-c2ccccc2)c(C#N)c(C)c1C,14%
COC(=O)c1ccc(S(=O)(=O)NCCSc2nnc3c4ccccc4n(C)c3n2)cc1,25%
c1ccc(C(Cc2nc(-c3ccccn3)no2)c2ccccc2)cc1,40%
CCCC(c1nnnn1Cc1ccco1)N1CCN(C(=O)c2ccco2)CC1 (stereo not drawn),25%
COc1ccc(N2C(=O)c3cccc4cccc(c34)C2=O)nn1,4%
O=C(CNC(=O)c1cccs1)NCCN1CCN(c2ccccc2F)CC1,-4%
CN(Cc1ccccc1)C(=O)c1ccc2c(c1)OCCO2,3%
O=C(O)c1ccc(CNCc2ccccc2)cc1,4%[5.75 µM]
O=C(CN(C(=O)CNS(=O)(=O)c1ccccc1)C1CCCC1)NCc1ccco1,2%
C=C(C)CN=c1scc(C)n1/N=C/c1ccco1,-4%
O=C(c1ccc2ccccc2c1)N1CCN(c2ccccc2)CC1,28%
CC(C)CN(C(=O)COC(=O)c1cc2ccccc2oc1=O)C1CCS(=O)(=O)C1 (stereo not drawn),3%

In the list so far, these contain an NH in an aromatic ring.
molecule,AmpC nodet inh
c1coc(-c2nnc(SCc3nc4ccccc4[nH]3)o2)c1,-3%
CCn1c(Sc2nc(C)nc3scc(-c4cccs4)c23)n[nH]c1=O,47%
NC(=O)COC(=O)CCCc1c[nH]c2ccccc12,-7%
Cc1[nH]nc2c1C(c1ccc(F)cc1)C1=C(CC(C)(C)CC1=O)N2 (stereo not drawn),-12%
CCc1cccc(NS(=O)(=O)c2c(C)n[nH]c2C)c1,6%

(cont.)
molecule,AmpC nodet inh
O=C(O)c1cc(S(=O)(=O)N2CCCC2)ccc1Br,12%
CC(C)Sc1ncnc2c1oc1ccccc12,30%
COc1ccc(-c2cc(C(F)(F)F)n3nc(C(=O)NCc4ccco4)cc3n2)cc1,101%
C=CCNC(=O)CCCOc1cccc(C)c1,20%
CC(C)=CCCC(C)CCO (stereo not drawn),-8%
O=C(O)c1c(-c2c3ccc(=O)cc-3oc3cc(O)ccc23)cc2ccccc2c1-c1ccccc1,6%[5.75 µM]
Cc1cc(N2CCOCC2)nc2ccc(NC(=O)CCC(=O)N3CCCCC3)cc12,59%
CC(C)Cc1nnc(NC(=O)c2ccncc2)s1,-2%
NC(=O)CSc1nnc(-c2cnccn2)n1-c1ccccc1,-8%
Cc1ccc(C)n1-c1ccc(-n2cnnn2)cc1,6%
O=C(O)CC1C(=O)NCCN1Cc1ccc(F)c(F)c1 (stereo not drawn),11%
CN1CCc2c(sc3c2C(=O)NC(c2ccc4c(c2)OCO4)N3)C1 (stereo not drawn),17%
CCOC(=O)C(NC(=O)CC)(Nc1ccc(S(=O)(=O)Nc2onc(C)c2C)cc1)C(F)(F)F (stereo not drawn),-10%
COc1ccc(C2C(C(=O)N3CCC4(CC3)OCCO4)c3cc(OC)c(OC)cc3C(=O)N2C)cc1 (stereo not drawn),51%
COc1cccc(-c2c(NC(=O)c3ccco3)n(-c3ccc(C)cc3)nc(C)c2=O)c1,2%
CCCCCCNC(=O)c1c(O)c2ccccc2[nH]c1=O,13µM*
Cn1c(=S)[nH]c2cccnc21,-8%
O=C(NCCn1ccc2ccccc21)C1CCCCC1,-6%
O=c1cc(CSc2nc3cc(Cl)ccc3o2)nc2sccn12,32%
CC12CS(=O)(=O)CC1SC(=S)N2c1ccccn1 (stereo not drawn),-6%
O=C(Nc1ccccc1)c1cc([N+](=O)[O-])ccc1Cl,-12%&1%
Cc1ccccc1-n1c(SCc2c(C)noc2C)nnc1-c1ccncc1,85%
Cc1cc(/C=N/n2cnnc2)c(C)n1-c1cc(Cl)ccc1Cl,70%
CC(C)NC[C@H](O)c1cc(O)cc(O)c1,-17%[12.8 µM]
Cc1ccc(-c2nn(CC(=O)NCc3ccco3)c(=O)c3ccccc23)cc1,4%
Cc1ccc2c(COC(=O)C3=COCCO3)cc(=O)oc2c1,-1%
Cn1cc[nH]c1=S,-1%[12.8 µM]
Cc1ccc(OCc2nnc(SCC(=O)N3CCOCC3)n2C)cc1,10%
O=C(CSc1nc2ccccc2o1)c1cc2ccccc2oc1=O,-11%
O=C(O)c1cc2nc3c(c(C(F)(F)F)n2n1)CCc1ccccc1-3,-2%
CC1CC(C)CN(C(=O)C2CCCN(S(=O)(=O)c3cccc4nonc34)C2)C1 (stereo not drawn),50%
CN(c1ccccc1C(=O)Nc1ccccc1C(=O)NCc1ccco1)S(C)(=O)=O,11%
Cc1noc(C)c1S(=O)(=O)N(CC(=O)Nc1ccc2c(c1)OCO2)c1ccc(C(C)C)cc1,-1%
O=C(CSc1ncc(C(F)(F)F)cc1Cl)N1CCN(S(=O)(=O)c2ccccc2)CC1,19%
COc1ccc(CCNC(=O)CN(c2ccc(C)cc2)S(=O)(=O)c2c(C)noc2C)cc1OC,106%
CCCOc1ccc(S(=O)(=O)NCCCN2CCOCC2)c2ccccc12,118%
CCNC(=O)C1CC(=O)N(c2ccc(Br)cc2)C1 (stereo not drawn),4%
O=C(CSc1ccc(Cl)cc1)OCc1nnc(-c2ccccc2)o1,-13%
NCS(=O)(=O)O,-1%[5.75 µM]
CCN1CCN(C(=O)C2c3cc(OC)c(OC)cc3C(=O)N(C)C2c2ccc(SC)cc2)CC1 (stereo not drawn),88%
CCOC(=O)N1CCN(C(=O)c2oc(=O)c3ccccc3c2-c2ccc(C)cc2)CC1,70%
N#CCCN(C(=O)CSc1ccc2c(c1)OCCO2)c1ccccc1,24%
CCCC(=O)Nc1nnc(-c2ccco2)s1,-10%
CCC1Sc2ccccc2N(CC(=O)NCc2ccc3c(c2)OCO3)C1=O (stereo not drawn),-7%
CCN1CCN(c2c(Cl)cccc2NC(=O)c2ccc3c(c2)OCCO3)CC1,9%
Cc1cc(-c2cccs2)n[nH]1,1%
O=C(c1ccccc1)c1ccc2nc(N3CCN(C(=O)c4ccco4)CC3)c3nncn3c2c1,87%
CCOC(=O)C1CCCN(C(=O)c2cc(-c3ccc(C)cc3)on2)C1 (stereo not drawn),72%
CC(C)(C)n1nnnc1C(c1cccs1)N(Cc1ccccc1)Cc1ccco1 (stereo not drawn),-5%
COc1ccccc1CNc1ccc(N2CCOCC2)c(C(=O)O)c1,19%
COC1(CS(=O)c2ccccc2)CCN(CCc2c[nH]c3ccc(F)cc23)CC1 (stereo not drawn),46%
COc1ccc(Oc2ncc3ncc(=O)n(C)c3n2)cc1,2%
O/N=C1\CC(O)Cc2nonc21 (stereo not drawn),-8%
Cc1ccc(-c2nc3cccnc3s2)cc1NC(=O)c1ccco1,8%
CN(Cc1ccccc1)S(=O)(=O)c1ccc(C(=O)Nc2nnc(C3CC3)o2)cc1,?
CCCN1CCN(c2ncnc3c2nnn3Cc2ccccc2)CC1,58%
CC(C)(C)c1csc(NC(=O)Cn2c(=O)oc3ccccc32)n1,-9%
COc1ccc(S(=O)(=O)Nc2ccc3c(c2)OCO3)cc1Cl,-20%
O=C(CCn1c(=O)sc2ccccc21)Nc1cccnc1,-16%

An excerpt. The share of hits here may be higher or lower than overall.
